# Screening data (PubChem BioAssay)
# YjeE inh – inhibitors of E. coli YjeE (TsaE). Potency, µM. AID 605. P0AF67. purified YjeE, fluorescence polarisation of a bound ADP probe. actives 0.05% (n = 71,000); active = well fitted falling curve; inconclusive = weaker or top-dose-only fall, or a rising curve; inactive = flat or poorly fitted curve;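 note: top concentration of the series not given in the record; excess ADP was the control for the full effect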
#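 Purified YjeE (10 uM) with BODIPY Texas Red-labeled ADP probe (2 uM); compounds pin-transferred, 15 min at room temperature. Binding inhibition read as decreased fluorescence polarization; ADP titration as control.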
# Bst PK mod – modulators of Bacillus stearothermophilus pyruvate kinase; actives 1.2% (n = 51,000); Potency, µM; partly purified Bacillus stearothermophilus pyruvate kinase, luminescence ATP production; ribose 5-phosphate activator present at AC10; in the data active means potency below about 11 µM; inconclusive means mostly about 12 µM to 25 µM; inactive means weaker than that;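 the screen sought inhibitors and activators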;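 note: potency is the fitted concentration of half-maximal effect; scaled between full activation by ribose 5 phosphate and full inhibition by luteolin; about four in five hits inhibit and the cells do not say which; series up to 57 µM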
# Active calls of the source: *; i = inactive; ? = inconclusive; · = no result given. Some of the compounds tested, so the mix of outcomes need not match the whole.
Bst PK mod,YjeE inh,smiles
>57,i,O=c1n(Cc2ccccc2)c2cc(Cl)cnc2n1Cc1ccccc1
·,i,CC(C)N(CCNC(=O)c1cn(C)c2ccc(S(=O)(=O)N(C)C)cc2c1=O)Cc1ccccc1
·,i,CCOc1ccc(-c2nnc(-c3ccco3)o2)cc1OCC
>26,·,Cn1c(OCc2cccnc2)nc2c1c(=O)n(Cc1ccc(Cl)cc1)c(=O)n2C
>57,i,CCN1C(=O)C2C(c3ccc(O)c(OC)c3)NC(C)(C(=O)OC)C2C1=O (configuration not stated)
>57,i,Cc1onc(COc2ccccc2O)c1Br
·,i,O=C1CCC(c2ccccc2)=NN1c1nc2ccccc2s1
>57,i,COc1ccc2c(c1)SC1=NCCS(=O)(=O)N12
·,i,CO/N=C(\C(=O)N[C@@H]1C(=O)N2C(C(=O)O)=C(CSc3nc(=O)c(O)nn3C)CS[C@@H]12)c1csc(N)n1
·,i,C#CCSc1nnc(-c2c[nH]c3ccccc23)n1C
·,i,Cc1noc(C)c1C(=O)N1CCC[C@@]2(CCN(C(=O)Nc3cccc(C#N)c3)C2)C1
·,i,Cn1c(Cn2c(=O)sc3ccccc32)nnc1SCC(=O)N1CCN(c2ccccc2)CC1
·,i,COc1ccc(CCn2c(=N)c(C(=O)NCc3ccco3)cc3c(=O)n4cccc(C)c4nc32)cc1
>57,i,Cc1cc(C(=O)NCc2cc(C)n(C)n2)sc1-c1ccccc1
>57,i,COc1ccc(CCNc2oc(-c3ccccc3OC)nc2C#N)cc1OC
>57,i,CCc1cc2cc(C(=O)Nc3ccccc3F)sc2s1
·,i,COc1cccc(-c2cncnc2NCc2ccc(OC)cc2OC)c1
>57,i,CCCCOc1ccc(NC(=O)CSc2nnnn2C)cc1
·,i,O=C1CC(c2ccccc2)c2cc(O)ccc2O1 (configuration not stated)
>57,i,Cc1ccccc1CS(=O)(=O)Cc1ccc(C(=O)NCC2CCCO2)o1 (configuration not stated)
i,i,CCCC(=O)Nc1cccc(-c2cn3ccsc3n2)c1
?,i,CC(=O)Nc1cccc(-c2nnc(-c3ccccc3)o2)c1
·,i,COc1ccc(N2C(=O)CCC(C(=O)c3ccccc3)=C2C)cc1
·,i,CCn1cc(C(=O)NCc2ccc(Cl)cc2)c(=O)c2cc(S(=O)(=O)N3CCOCC3)ccc21
·,i,CC(C)N(CCCNC(=O)CC1Oc2ccccc2NC1=O)Cc1ccccc1 (configuration not stated)
>57,i,COc1ccccc1-c1nc(C#N)c(N2CCN(Cc3ccccc3)CC2)o1
·,i,O=[N+]([O-])c1nccn1C[C@H](O)CN1CCCCC1
>57,i,CCOc1cc(C2CC(=O)NC3=C2C(=O)C(C(=O)OC)C(C)C3)cc(Cl)c1O (configuration not stated)
>26,·,COc1ccccc1NC(=O)CSc1nnc(-c2ccc(NC(C)=O)cc2)n1C
·,i,CN(C)Cc1c[nH]c2nc[nH]c(=O)c12
>57,i,Cc1cc(NC(=O)CSc2nc3ccccc3n2CC(=O)N2CCCCC2)no1
·,i,O=C(CCNc1cccc(C(F)(F)F)c1)c1ccco1

# An excerpt of the results above, as a working copy:
Bst PK mod,YjeE inh,smiles
>57,i,O=c1n(Cc2ccccc2)c2cc(Cl)cnc2n1Cc1ccccc1
·,i,CC(C)N(CCNC(=O)c1cn(C)c2ccc(S(=O)(=O)N(C)C)cc2c1=O)Cc1ccccc1
·,i,CCOc1ccc(-c2nnc(-c3ccco3)o2)cc1OCC
>26,·,Cn1c(OCc2cccnc2)nc2c1c(=O)n(Cc1ccc(Cl)cc1)c(=O)n2C

# More entries:
Bst PK mod,YjeE inh,smiles
·,i,CCOc1cc(C(=O)Nc2nnc(C)s2)cc(OCC)c1OCC
>57,i,COc1ccc(OC(C)C(=O)N2CC(C)OC(C)C2)cc1 (configuration not stated)
·,i,CCC(C)C(=O)Nc1nc2c(s1)C(=O)CC(C)(C)C2 (configuration not stated)
>57,i,CCC(CC)C(=O)Nc1cccc(-c2nc3ccccc3o2)c1
?,i,O=C(Cn1nnc(-c2cccs2)n1)N1CCc2ccccc2C1
>11,i,COc1ccc(NC(=O)CCS(=O)(=O)c2cccc3nonc23)c(OC)c1
>57,i,COc1ccc(C(=O)Nc2ccccc2NC(=O)c2ccco2)cc1OC
?,i,CCOc1ccc(NC(=O)CN(C)CC(=O)NC2CCCc3ccccc32)cc1OCC (configuration not stated)
>26,i,CNC[C@H](O)c1cccc(O)c1
·,i,CN(C)C(=O)c1ccc(-c2cncnc2Nc2ccccc2)cc1
i,i,Cc1ccc(C(=O)Nc2c3c(nn2C(C)(C)C)CS(=O)(=O)C3)cc1C
·,i,COc1ccc(C(=O)/C(C)=N/O)cc1OC
>57,i,COc1ccc(S(=O)(=O)N(CC(=O)NC2CC2)C2CCCCC2)cc1Cl
>57,i,CC(=O)c1ccc(N2C(=O)[C@@H]3C(CCC(N)=O)NC4(C(=O)Nc5c4ccc(Cl)c5C)[C@@H]3C2=O)cc1 (some centres not stated)
>57,i,CCOC(=O)c1sc(NC(=O)CNC(=O)Cn2cnc3sc(C)c(C)c3c2=O)nc1C
·,i,Oc1c(Cl)ccc(Cl)c1Cl
·,i,COc1cccc(Cn2c(=O)cnc3cnc(N4CCN(C)CC4)nc32)c1
·,i,O=C1C=C(N2CCN(c3ccccn3)CC2)C(=O)c2c(O)ccc(O)c21
·,i,CC(CN1CCNCC1)(NS(=O)(=O)c1ccccc1)c1ccccc1 (configuration not stated)
·,i,COc1cccc(-c2nc(Cc3ccc(OC)c(OC)c3)no2)c1
>57,i,COc1ccc(C2=NO[C@@H]3C(=O)N(C4CCCCC4)C(=O)[C@H]23)cc1OC
·,i,O=S(=O)(O)c1cc(S(=O)(=O)O)c2c(N=Nc3cccc4ccccc34)c(O)ccc2c1
>57,i,COc1ccc(Oc2nc(C)cc(C)c2C#N)cc1
·,i,Cc1oc(-c2ccc(Cl)cc2)nc1CS(=O)CC(=O)NCCN1CCCC1 (configuration not stated)
·,i,COCCNc1ccnc(-c2cccc(NS(C)(=O)=O)c2)n1
>57,i,O=C(CNS(=O)(=O)c1ccc(C(=O)N2CCOCC2)cc1)N1CCOCC1
>57,i,CC(C)N(Cc1nnc(-c2ccccc2Cl)o1)C(=O)c1cccc(C#N)c1
>57,i,CNC(=O)c1ccc(N(Cc2ccccc2)S(C)(=O)=O)cc1
>57,i,O=C(OC(C(=O)NCC1CCCO1)c1ccc(F)cc1)c1ccco1 (configuration not stated)
>57,i,CN(C(=O)c1cc2n(n1)C(C(F)(F)F)CC(c1ccco1)N2)c1ccc(OC(F)(F)F)cc1 (configuration not stated)
·,i,COc1ccc(OC)c(N(CC(=O)NC2CC2)S(=O)(=O)c2ccc(C)cc2)c1
>57,i,O=C(NCc1ccccc1)c1ccc(F)c(S(=O)(=O)N2CCOCC2)c1
·,i,CCOC(=O)c1c(C)nc2c(c1C)/C(=N/O)CC(C)(C)C2
>57,i,O=C(NCCc1ccccc1)C1CCCN1C(=O)NCc1ccccc1 (configuration not stated)
>57,i,Cc1nc(SCC(=O)Nc2ccccc2)c2oc3ccccc3c2n1
>57,i,CCOC(=O)c1c(C)c(C(=O)NCCCOC(C)C)c(C)n1C
>57,i,COc1ccccc1CN(CC(=O)NCc1ccco1)C(=O)CNS(=O)(=O)c1ccccc1
>57,i,COC(=O)c1ccccc1NC(=O)CSc1nnc(C(CO)NC(=O)c2ccccc2)n1C (configuration not stated)
>57,i,CC(=O)N1CCCc2cc(S(=O)(=O)NCc3ccc(C)cc3)ccc21
>57,i,COc1ccc(CNc2nc(-c3cccnc3)nn2C(=O)c2ccco2)cc1

# Of the compounds above, these have a cyano group.
Bst PK mod,YjeE inh,smiles
·,i,Cc1noc(C)c1C(=O)N1CCC[C@@]2(CCN(C(=O)Nc3cccc(C#N)c3)C2)C1
>57,i,COc1ccc(CCNc2oc(-c3ccccc3OC)nc2C#N)cc1OC
>57,i,COc1ccccc1-c1nc(C#N)c(N2CCN(Cc3ccccc3)CC2)o1
>57,i,COc1ccc(Oc2nc(C)cc(C)c2C#N)cc1
>57,i,CC(C)N(Cc1nnc(-c2ccccc2Cl)o1)C(=O)c1cccc(C#N)c1

# The listing continues:
Bst PK mod,YjeE inh,smiles
>57,i,O=C(CCn1c(=S)[nH]c2cc3c(cc2c1=O)OCO3)NCCN1CCCC1
·,i,Cc1cc([N+](=O)[O-])ccc1N
>57,i,COCCCNC(=O)CCc1nc(-c2ccccc2Cl)no1
>57,i,COc1ccccc1-n1c(C)nc(=O)c(-c2ccccc2)c1C
·,i,CN1CCN(c2ncc3ncc(=O)n(CCC#N)c3n2)CC1
>57,i,CN(Cc1ccccc1)c1oc(-c2ccco2)nc1C#N
·,i,CC1(C)N(O)CC(c2cccs2)=[N+]1[O-]
·,i,Cc1ccc(-c2cc(C)nc3ncnn23)cc1
·,i,c1ccc(-n2ncc3c(NCc4ccco4)ncnc32)cc1
·,i,COc1ccc(CNc2cc(-c3cccnc3)ncn2)c(OC)c1
·,i,COc1ccc(NC(=O)N2CCN(c3nc(-c4cccc(OC)c4)cs3)CC2)cc1
·,i,Cc1nc2ccccc2c2oc(C(=O)N3CCc4ccccc43)cc12
>57,i,COc1ccc(C(=O)O)cc1NS(=O)(=O)c1cccc2nsnc12
>57,i,Cc1nc2c(c(=O)n1CCC(C)C)c1nc3ccccc3nc1n2Cc1ccc2c(c1)OCO2
>57,i,COc1ccccc1N1CCN(C(=O)C(C)N(c2ccc(C)cc2)S(C)(=O)=O)CC1 (configuration not stated)
·,i,C/C=C/Cn1c(SCCCc2ccccc2)nc2c1c(=O)[nH]c(=O)n2C
>57,i,Cc1ccc(CNc2ncc(-c3ccc4c(c3)OCO4)n2C)cc1
>57,i,C=CCOc1cccc(C2/C(=C(\O)c3ccc(F)cc3)C(=O)C(=O)N2CCN(C)C)c1 (configuration not stated)
>57,i,CCC(c1nnnn1CCc1ccccc1)N(Cc1ccco1)Cc1cc2cccc(C)c2[nH]c1=O (configuration not stated)
>11,·,O=C(NCC1CCCCN1)c1cc(OCC(F)(F)F)ccc1OCC(F)(F)F (configuration not stated)
·,i,Cc1nc2cnc(N3CCOCC3)nc2n(Cc2ccc(F)cc2)c1=O
>57,i,CCC(C)(C(=O)NC1CCCCC1)N(Cc1ccco1)C(=O)c1cnccn1 (configuration not stated)
>26,·,O=C(C1CC1(c1ccccc1)c1ccccc1)N1CCOCC1 (configuration not stated)
·,i,CC1(C)CC(=O)C(C=NC2CCCCC2)=C(O)C1
>57,i,COc1ccc(CCNC(=O)C2CCN(S(=O)(=O)N3CC(C)CC(C)C3)CC2)cc1OC (configuration not stated)
>57,i,Cc1nc(-n2cc(F)c(=O)[nH]c2=O)c2nc(C)oc2n1
>57,i,CCOc1ccc(NC(=O)CN(C)CC(=O)Nc2ccccc2C#N)cc1OCC
·,i,COc1cccc(-c2cc(C(=O)Nc3ccccc3SC)no2)c1
>57,i,CN(C)CCNC(=O)Cn1nc(C(F)F)cc1C1CC1
·,i,CCC(C)(C(=O)NC1CCCC1)N(C(=O)c1cnccn1)c1ccccc1 (configuration not stated)
·,i,CCNc1ncc2nc(-c3cc(F)cc(F)c3)c(=O)n(C[C@H]3CCCO3)c2n1
>57,i,Cc1ccc(N(CC(=O)Nc2cccc(C)c2)S(=O)(=O)c2cccc3nonc23)cc1
>26,·,CC(Cc1ccc(O)c(O)c1)C(C)Cc1ccc(O)c(O)c1 (configuration not stated)
>57,i,COC(=O)c1ccc(Cn2cnc3ccccc3c2=O)cc1
·,i,O=C(Nc1cccc(F)c1)N1CCCC2(CCN(C(=O)c3csnn3)CC2)C1
·,i,Cc1cccc(CNc2ccnc(-c3ccccc3CN(C)C)n2)c1
>57,i,CCOc1ccccc1N(CC(=O)NC(C)(C)C)C(=O)Cn1nnc(-c2ccc(C)o2)n1
>57,i,O=C(Nc1nnc(CC(=O)N2CCOCC2)s1)c1cccs1
>57,i,Cc1[nH]c(=O)c(C#N)c(C)c1Br
·,i,Cn1c(=S)c2[nH]c(SCCN3C(=O)c4ccccc4C3=O)nc2n(C)c1=O
>57,i,CCn1cc(C(=O)OCC(=O)Nc2ccc(S(=O)(=O)N3CCCC3)cc2)c(=O)c2ccc(C)nc21
·,i,COc1cc(C)c(S(=O)(=O)NCc2ccc3c(c2)OCO3)cc1C
>57,i,COCCNC(=O)NC(=O)COC(=O)Cc1ccc2c(c1)OCCO2
·,i,O=C(O)[C@H]1CCCN(CCC=C(c2ccccc2)c2ccccc2)C1
>57,i,NC(=O)CSc1nnc(Cc2ccc3c(c2)OCO3)n1C1CCCCC1
>57,i,COc1cc(OC)c(C2N(c3ccc(Cl)c(Cl)c3)C(=O)C3CCCN32)cc1OC (configuration not stated)
>57,i,N#CCCN1CCN(Cn2c3ccccc3c3ccccc32)CC1
>57,i,O=C(Nc1ccc(N2CCN(C(=O)c3ccco3)CC2)c(Cl)c1)c1cc2ccccc2o1

# Full records from above. Order of screens: Bst PK mod, YjeE inh
# O=C1CCC(c2ccccc2)=NN1c1nc2ccccc2s1 in the list: ·, i
# COc1ccc(C(=O)Nc2ccccc2NC(=O)c2ccco2)cc1OC in the list: >57, i

# Remaining list, next part:
Bst PK mod,YjeE inh,smiles
·,i,COc1ccc(Oc2ncc3ncc(=O)n(C4CC4)c3n2)cc1
>57,i,O=C(Nc1ccc2c(c1)OCO2)c1ccccc1SCC(=O)N1CCCC1
>26,·,Cc1nc2c(c(N3CCOCC3)n1)OCC(=O)N2
>57,i,COC(=O)CN1C(=O)C2(C(C#N)=C(N)Oc3cc(C)oc(=O)c32)c2ccccc21 (configuration not stated)
>57,i,COc1ccc(Cl)cc1NC(=O)CN(C(=O)c1ccco1)C1CCCCC1
>57,i,Cn1c(CSc2nnc(SCc3ccccc3)s2)nc2ccccc21
·,i,CCCN(CCC)CCNC(=O)c1cc2c(C)nc3ccccc3c2o1
